Mtb growth = M. tuberculosis H37Rv growth inhibitors, H37Rv strain (AID 1626); M. tuberculosis H37Rv growth inhibition; higher % means a stronger effect; one-dose inhibition, % at 10 µM; IC50 in µM for titrated hits; hit rate 0.95% among 220,000;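 active = confirmed in a dose series; inconclusive = inhibition above 80% but not taken into the dose series; inactive = below 80% or under 30% at every dose of the series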;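 also: bacteria incubated seven days before Alamar blue readout; 0% = bacteria only wells and 100% = bacteria with antibiotic wells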
YopH inh = YopH tyrosine phosphatase inhibitors, primary screen, biochemical, fluorescence Ex485/Em525; inhibition, %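 (about 10 µM by stock and volumes)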; AID 898, 2007; YopH tyrosine phosphatase [Yersinia enterocolitica]; hit rate 0.16% among 140,000;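 active = inhibition of 50% or more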;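 also: controls were vehicle for no effect and minimum signal wells for full effect; inactives centre near -20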
Arbovirus inh = antivirals against arbovirus infection, primary screen, cell-based, full library, 10K replicate subset; arbovirus infection cell-based antiviral screen; inhibition, % at 10 µM; hit rate 0.37% among 200,000; AID 1251, 2008;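 active = inhibition from about 30%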;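 also: bluetongue infection of BSR cells; cell survival read as ATP light after 72 h; 0% = infected wells without compound and 100% = uninfected wells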
Mtb bLac sens = beta-lactam sensitization of Mtb H37Rv, H37Rv; M. tuberculosis H37Rv growth with meropenem, percent inhibition; hits of this screen are not shown here; inhibition, % at 25 µM; hit rate 0.27% among 330,000; AID 434955, 2010;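 active = about 74% or more and at least 40 points above the plate without the antibiotic, then above 30% in a dose series; inconclusive = first-round hits that could not be retested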;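 also: growth measured after seven days incubation then overnight dye step; 0% = bacteria only wells and 100% = bacteria with antibiotic; twin plates without the antibiotic show which effects depend on it; some results filed as inactive read as strong as hits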
RecA splice inh = Mtb RecA intein splicing inhibitors, primary screen, biochemical, fluorescence, HTS | Protein RecA (Mycobacterium tuberculosis (strain ATCC 25618 / H37Rv)), P9WHJ3 | cell-free RecA intein splicing | inhibition, %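 (about 9 µM by stock and volumes)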 | hit rate 0.75% among 290,000; in the data active = inhibition above about 30%; inconclusive = no clear call, values can overlap the other calls;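 also: 0% = vehicle wells and 100% = reference inhibitor control wells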
Target sequence (P9WHJ3 whole entry, looked up, canonical isoform): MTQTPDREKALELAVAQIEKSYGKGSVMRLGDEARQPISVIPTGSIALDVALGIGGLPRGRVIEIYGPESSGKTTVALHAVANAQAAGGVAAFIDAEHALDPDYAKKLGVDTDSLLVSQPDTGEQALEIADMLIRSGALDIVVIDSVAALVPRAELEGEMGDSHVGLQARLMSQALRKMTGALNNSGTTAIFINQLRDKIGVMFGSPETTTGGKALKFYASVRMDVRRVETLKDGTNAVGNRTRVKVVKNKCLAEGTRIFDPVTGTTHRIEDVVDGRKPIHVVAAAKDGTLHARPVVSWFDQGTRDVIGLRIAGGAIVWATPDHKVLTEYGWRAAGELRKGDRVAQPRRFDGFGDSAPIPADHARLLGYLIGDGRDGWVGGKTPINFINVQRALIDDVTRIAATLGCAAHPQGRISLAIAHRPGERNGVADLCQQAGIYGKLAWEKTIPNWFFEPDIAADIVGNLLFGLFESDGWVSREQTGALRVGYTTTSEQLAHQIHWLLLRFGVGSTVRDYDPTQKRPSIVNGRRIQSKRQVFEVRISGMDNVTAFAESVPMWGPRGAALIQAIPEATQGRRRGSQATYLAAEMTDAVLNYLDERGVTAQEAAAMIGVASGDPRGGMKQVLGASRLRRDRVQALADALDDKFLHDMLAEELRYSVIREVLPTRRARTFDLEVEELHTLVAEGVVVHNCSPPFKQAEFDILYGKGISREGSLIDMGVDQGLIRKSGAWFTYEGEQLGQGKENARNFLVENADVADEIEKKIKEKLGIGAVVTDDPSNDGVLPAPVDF
Arbovirus inh repeat = second read-out of Arbovirus inh, no call of its own (marks repeat the call); inhibition, %; measured here: 10K subset replicate screen; many hits read low in the repeat;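 first of two repeat runs on a subset; 0% = infected and 100% = uninfected wells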
* hit, by the source's call; ? = inconclusive; / = no result given. The list is partial. The share of hits here may be higher or lower than overall.

SMILES	Mtb growth	YopH inh	Arbovirus inh	Mtb bLac sens	RecA splice inh	others
N#CC1=C(S)N(c2ccccc2)C(c2cccs2)NC1=O (centres undefined)	-3%	-30	-9	2	-2.0
COc1ccc(NC(=S)NCCc2c[nH]c3ccccc23)c(OC)c1	-1%	-10	5	-11	7.9
O=C(O)CC(NS(=O)(=O)Cc1ccccc1)c1cccc([N+](=O)[O-])c1 (centres undefined)	/	/	/	0	1.5
Cn1c(SCc2ccccn2)nnc1-c1ccccc1	-1%	/	3	-3	-0.8
CCCc1nc2ccccc2c(=O)n1/N=C/c1ccc(O)cc1O	7%	-43	-33	-8	-2.8
Cc1ccc(C(=O)NCCc2ccc(S(N)(=O)=O)cc2)o1	-3%	/	6	3	3.1
COc1ccc(C(=O)OCCN=C2NS(=O)(=O)c3ccccc32)cc1OC	-8%	-53	1	?	-1.4
CCOC(=O)N1CCN(C(=O)CS(=O)(=O)Cc2nc(-c3cccc(OC)c3)oc2C)CC1	/	/	/	-1	0.7
O=S1(=O)CC2(N3CCOCC3)CCCCC21 (centres undefined)	-4%	-27	3	4	-0.3
Cn1c(=O)c2c(ncn2CC(=O)N/N=C/C(Cl)=C/c2ccccc2)n(C)c1=O	0%	-20	2	-1	-0.7
COc1cc(OCc2ccccc2)c(C(=O)/C=C/c2ccc3c(c2)OCO3)c(OC)c1OC	/	/	/	-3	6.4
O=C(O)c1cc(Cl)c(Cl)cc1C(=O)N(Cc1ccccc1)Cc1ccccc1	/	/	/	-3	4.1
COCCCNC(=O)Cn1c(=O)n(Cc2ccc(C(=O)NCCc3ccc(OC)c(OC)c3)cc2)c(=O)c2ccccc21	2%	/	2	-7	0.2
Cc1ccc(NC(=O)CC2SC(=NCC3CCCO3)NC2=O)cc1Cl (centres undefined)	-4%	-26	-3	8	1.3
CCCCOCCCNc1ncnc2c1[nH]c1ccccc12	1%	5	-34	4	1.6
CCOC(=O)c1sc2nc3c(SCCC#N)cc(C(=O)c4cc(F)ccc4O)cn3c(=O)c2c1C	-3%	-11	-16	17	-5.3
COc1ccc(CCNC(=O)CNS(=O)(=O)c2ccc(Br)cc2)cc1	/	/	/	-1	-3.9
CCc1ccc(CNC(=O)CCS(=O)(=O)Cc2ccccc2F)cc1	/	/	/	5	1.8
CC1CN(C(=O)CCC(=O)NCc2cccnc2)c2ccccc2O1 (centres undefined)	/	/	/	-5	-1.4
Cn1nc(C(C)(C)C)c([N+](=O)[O-])c1C(N)=O	8%	/	/	-5	-1.7
CCCCNC(=O)CCn1c(=O)c2ccccc2n(CC(=O)Nc2ccccc2OCC)c1=O	6%	-40	-17	2	14
CC(=O)Nc1ccc2c(c1)OCO2	-1%	/	9	-7	3.4
CCC(=O)N(Cc1cc(=O)[nH]c2ccccc12)c1ccc(C)cc1	-10%	/	/	-5	1.2
COc1cc(NS(=O)(=O)c2ccc(NC(=S)NC(=O)CC(C)C)cc2)nc(OC)n1	-5%	-45	5	-2	-1.8
CCCCCCSc1ccc([C@H]2N[C@@](Cc3ccccc3)(C(=O)OC)[C@H]3C(=O)N(CC)C(=O)[C@@H]23)cc1	/	/	/	-18	18

The final two compounds of the section above come first, to join the parts.
SMILES	Mtb growth	YopH inh	Arbovirus inh	Mtb bLac sens	RecA splice inh	others
COc1cc(NS(=O)(=O)c2ccc(NC(=S)NC(=O)CC(C)C)cc2)nc(OC)n1	-5%	-45	5	-2	-1.8
CCCCCCSc1ccc([C@H]2N[C@@](Cc3ccccc3)(C(=O)OC)[C@H]3C(=O)N(CC)C(=O)[C@@H]23)cc1	/	/	/	-18	18
COC(=O)c1sccc1NC(=O)Nc1cc(C)ccc1OC	/	/	/	1	-0.1
CCOC(=O)c1c(C)n(C)c2ccc(OC(C)=O)cc12	-2%	-20	4	80	1.2
COc1ccc(Nc2nc(N)nc(C(F)(F)F)n2)c(OC)c1	0%	-117	-2	-22	-1.5
O=C(NC12CC3CC(CC(C3)C1)C2)c1cccnc1Cl	/	/	/	-1	-0.3
Cc1ccccc1N1CCN(S(=O)(=O)c2ccc3oc(=O)ccc3c2)CC1	0%	-2	2	-6	12
CCS(=O)(=O)c1nc(S(=O)(=O)c2ccc(C)cc2)c(N2CCCC(C)C2)s1 (centres undefined)	/	/	/	26	8.3
CC(=O)c1ccc(NC(=O)c2cc(CC(C)C)on2)cc1	7.2µM*	-13	1	97	-4.2
O=C(O)c1cc(-c2ccc(Cl)cc2)n(-c2ccc(Cl)cc2)n1	-12%	/	29	-7	0.1
C=CCNC(=O)CN1C2CCCC1CC(NC(=O)c1ccccc1C)C2 (centres undefined)	-1%	-7	2	-10	-1.1
Cc1cccc(-n2ncc3c(NCc4ccccc4)ncnc32)c1	19%	-34	-12	4	-0.4	Arbovirus inh repeat=-15
COc1ccc(S(=O)(=O)N2CCOCC2)cc1C(C)C	-3%	-33	5	-2	0.3
CC(=O)c1cccc(NS(=O)(=O)c2c(C)noc2C)c1	/	-52	7	-3	2.2
Cn1ccnc1SCC(=O)Nc1ccc2c(c1)OCO2	1%	/	7	-7	15
CCN(CC)S(=O)(=O)c1ccc(N/N=C/c2cccnc2)nc1	7%	/	/	-1	3.3
Oc1ccc(/C=N/n2c(C3CCCCC3)n[nH]c2=S)c(O)c1	/	/	/	3	-1.4
O=C(Nc1ccncc1)c1ccc(Cl)c([N+](=O)[O-])c1	/	/	/	1	-2.5
CCn1cnc2sc(C(=O)Nc3ccc4c(c3)OCO4)c(C)c2c1=O	-8%	-28	-3	-2	-0.6
CC1CCCCN1C(=O)CNCC1CCCO1 (centres undefined)	-9%	/	8	-1	-2.0
Cc1noc(NS(=O)(=O)c2ccc(NC(=O)C34CC5CC(C3)CC(n3cnc(Br)n3)(C5)C4)cc2)c1C	-1%	-25	-15	0	-1.4
CCCOc1ccc(/C(O)=C2/C(=O)C(=O)N(CCCn3ccnc3)C2c2ccco2)cc1 (centres undefined)	-8%	-29	-3	52	0.0
Cc1ccc(C)c(N/C=C(\C#N)c2nc3ccccc3o2)c1	4%	-16	/	1	-4.4
CC12CC(NC(=O)N1c1cccc(C(=O)NCc3ccc4c(c3)OCO4)c1)c1cc(Cl)ccc1O2 (centres undefined)	-3%	-4	-22	3	0.9
Cc1nn(C)cc1/C=N/NC(=O)c1sc2ccccc2c1Cl	12%	-8	-3	17	0.2
CN1CCN(CCCCOc2cccc3ccccc23)CC1	/	/	/	-8	2.6
Cn1c(SCC(=O)N2CCN(Cc3ccccc3)CC2)nnc1-c1ccncc1	-9%	-45	2	-8	0.3
Other results
SMILES	Mtb growth	YopH inh	Arbovirus inh	Mtb bLac sens	RecA splice inh	others
COc1ccc(S(=O)(=O)N2CCC3(CC2)OCCO3)cc1	3%	/	-5	-9	0.8
CCOC(=O)c1ccc(Nc2nnc(C)c3ccccc23)cc1	4%	/	/	-3	-1.0
CCC1=[N+](CC(=O)c2ccc(C)cc2)CCn2cccc21	-1%	/	9	-10	/
COc1cc(-c2noc(CCCC(=O)NC3CCCCC3)n2)cc(OC)c1OC	4%	0	-14	-2	4.9
Cc1ccc2nc(C)c(C(=O)NN=C3CCN(C)CC3)n2c1	4%	/	-6	-3	8.9
COc1ccc(OC)c(C(=O)CSc2nnnn2C)c1	1%	-39	2	4	/
CCCCn1c(SCC(=O)Nc2cc(C)on2)nc2ccsc2c1=O	-2%	-34	-2	7	0.6
CCn1cc(CNC(=O)CC2C(=O)NCCN2CC(c2ccccc2)c2ccccc2)cn1 (centres undefined)	3%	/	3	5	/
CCCN(C(=O)COC(=O)c1[nH]c(C)c(C(=O)OC)c1C)c1c(N)n(Cc2ccccc2)c(=O)[nH]c1=O	/	/	/	-10	-12
O=C1c2ccsc2SCCN1Cc1cccc(F)c1	/	/	/	-1	1.0
CCN1C(=O)[C@H]2[C@@H](c3ccc(-c4ccc(OC)cc4)cc3)N3CCC[C@@]3(C(=O)OC)[C@H]2C1=O	/	/	/	-4	4.1
CCCSc1nc(N)c(C#N)c(-c2ccc(C)cc2)c1C#N	3%	6	-4	-8	-2.4
O=C(NCCN1CCOCC1)c1ccc(F)cc1	-5%	-3	3	2	-0.4
CCS(=O)(=O)NCCc1cc2ccc(C)cc2[nH]c1=O	-1%	-41	-1	-8	-1.2
COc1cc([N+](=O)[O-])ccc1NC(=S)NNC(=O)CCC(=O)Nc1ccccc1Cl	/	/	/	-1	-5.9
O=C(CCC(=O)Nc1cccc(Cl)c1)N/N=C/c1cc([N+](=O)[O-])ccc1O	1%	/	3	3	-0.3
N#C/C(=C\c1c(Cl)cccc1Cl)c1nc2ccccc2[nH]1	7%	/	/	6	19
Cn1c(C(=O)OC(C(=O)NCC2CCCO2)c2cccnc2)cc2sccc21 (centres undefined)	0%	/	2	-5	-1.7
O=C(N/N=C/c1ccc([N+](=O)[O-])o1)c1cc(-c2ccc(-c3ccccc3)cc2)nc2ccccc12	76%	/	-9	99	6.9
Cc1cccc[n+]1CCCCCCCCCC[n+]1ccccc1C	0%	/	4	4	-0.9
CNC(=S)N1CCc2sccc2C1C (centres undefined)	-5%	/	/	-8	-2.1
CCc1ccc2oc(=O)cc(CN3CCCCC3C)c2c1 (centres undefined)	-1%	-40	-6	-3	1.1
CCOc1ccc(/C=N/Nc2nc(C)cs2)c(O)c1	/	/	/	45	-1.1
Cc1cccc(-c2nnnn2-c2cccc(C)c2)c1	5%	/	-14	1	11
O=C(CCC(=O)CCN1CCCCC1)CCN1CCCCC1	-1%	-32	2	6	-1.9

Part of the list above in order of molecular weight, low to high.
SMILES	Mtb growth	YopH inh	Arbovirus inh	Mtb bLac sens	RecA splice inh	others
CNC(=S)N1CCc2sccc2C1C (centres undefined)	-5%	/	/	-8	-2.1
CCOc1ccc(/C=N/Nc2nc(C)cs2)c(O)c1	/	/	/	45	-1.1
CCCSc1nc(N)c(C#N)c(-c2ccc(C)cc2)c1C#N	3%	6	-4	-8	-2.4
COc1ccc(S(=O)(=O)N2CCC3(CC2)OCCO3)cc1	3%	/	-5	-9	0.8
O=C(CCC(=O)Nc1cccc(Cl)c1)N/N=C/c1cc([N+](=O)[O-])ccc1O	1%	/	3	3	-0.3
Cn1c(C(=O)OC(C(=O)NCC2CCCO2)c2cccnc2)cc2sccc21 (centres undefined)	0%	/	2	-5	-1.7

Going on with the list.
SMILES	Mtb growth	YopH inh	Arbovirus inh	Mtb bLac sens	RecA splice inh	others
CCOC(=O)C1=C(C)N(C)C(C)=C(C(=O)OCC)C1c1ccncc1	0%	-23	-4	-4	-1.4
N#CCSc1nnc(C2CCCCC2)n1Cc1ccccc1	0%	-40	4	-3	2.6
CN(c1ccccc1C(=O)Nc1ccc(F)c(Cl)c1)S(C)(=O)=O	-3%	/	3	-2	0.6
O=[N+]([O-])c1ccc(NNS(=O)(=O)c2cc(Cl)ccc2Cl)nc1	/	/	/	8	-2.7
COc1ccc(C2CC(C(F)(F)F)n3ncc(C(=O)NCc4cccnc4)c3N2)cc1OC (centres undefined)	-8%	-30	-4	-5	0.3
O=C(NCCNC(=O)c1cccc(O)c1)c1cccc(O)c1	/	/	/	4	-0.6
COc1ccc(C(=O)/C=C/Nc2ccc(S(=O)(=O)Nc3cc(OC)nc(OC)n3)cc2)c(OC)c1	/	/	/	4	-22
COc1ccc(S(=O)(=O)N2CCC(C(=O)NCC3CCCO3)CC2)cc1OC (centres undefined)	6%	/	2	4	0.8
O=S(=O)(c1ccc(N2CCCC2)nc1)N1CCOCC1	-9%	5	-3	-12	-0.2
CS(=O)(=O)N1CCc2cc(-c3csc(NC(=O)Cc4cccs4)n3)ccc21	10%	-9	-32	28	5.6
Oc1c(C=Nc2cccc3cccnc23)sc2ccccc12	50%	-12	-22	99	-2.2
COc1ccc(CCNC(=O)CC2Nc3cc(C)c(C)cc3NC2=O)cc1OC (centres undefined)	-6%	-8	-2	-2	2.5
Cn1c(COc2ccccc2)nnc1SCc1nc2ccccc2[nH]1	3%	71*	6	5	0.0
CC(=O)C1=C(C)Nc2ncnn2C1c1cccc(OCc2ccccc2)c1 (centres undefined)	7%	-14	7	-2	-1.6	Arbovirus inh repeat=-5
CCNC(=S)NNC(=O)c1ccncc1	54%	/	2	99	/
Cc1cccc(C)c1NC(=O)CN(C)C(=O)c1cccc(S(=O)(=O)N2CCN(C)CC2)c1	/	/	/	2	-1.8
Cc1csc(NC(C)c2nc3cc(Cl)c(Cl)cc3n2CCCO)n1 (centres undefined)	-5%	/	/	-3	1.2
CCc1cc(=O)oc2cc(OCC(=O)OC)c(Cl)cc12	0%	10	6	10	0.3	Arbovirus inh repeat=3
Fc1ccccc1Cc1noc(CN2CCN(C/C=C/c3ccccc3)CC2)n1	61%	/	-2	-10	0.2
O=C(c1ccc(-c2cccc(Cl)c2)o1)N1CCN(c2ccc([N+](=O)[O-])cc2)CC1	-3%	-32	-10	1	3.0

Screening results: PubChem, several laboratories
